Cruzain noTriton: cruzain (T. cruzi) inhibition without detergent; actives 2.3% (n = 200,000); purified cruzain, Z-FR-AMC fluorescence, no detergent; Potency, µM, for the others: max response, negative = inhibition, usual class: inhibitors; P25779; active means well fitted curve in the direction sought with a large enough effect; inconclusive means small, poorly fitted or top-dose-only effect, or another doubt; inactive means no such curve, though single readings can be large; an effect the other way counts as inactive or inconclusive;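 further: plate controls were enzyme without inhibitor for no effect and buffer without enzyme for full effect; nearly all actives have a fitted effect of over 40% in size; top concentration of the series not given in the record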
Target sequence (P25779 123-467 limits assumed): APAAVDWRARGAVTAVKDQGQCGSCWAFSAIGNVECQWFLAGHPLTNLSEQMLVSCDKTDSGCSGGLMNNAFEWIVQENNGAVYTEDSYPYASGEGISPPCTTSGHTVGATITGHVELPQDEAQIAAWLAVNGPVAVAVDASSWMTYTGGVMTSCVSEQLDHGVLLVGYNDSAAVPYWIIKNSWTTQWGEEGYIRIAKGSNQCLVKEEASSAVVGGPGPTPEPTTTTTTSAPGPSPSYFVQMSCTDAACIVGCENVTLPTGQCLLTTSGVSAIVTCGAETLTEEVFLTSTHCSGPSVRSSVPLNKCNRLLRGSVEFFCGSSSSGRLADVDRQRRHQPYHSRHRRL
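Detergent-free condition (0.00005% Triton X-100) in acetate buffer pH 5.5 with DTT. 1.5 nM enzyme and compound were pre-mixed 15 min, then 2 uM Z-FR-AMC substrate added; reaction progress from fluorescence change between first and third reads (60 s).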
RE007 growth inh: less growth of the S. pombe RE007 Vpr strain; S. pombe RE007 Vpr strain, BacTiter-Glo ATP luminescence, 24 h; control for the full effect not named in the record; Potency, µM (highest dose often 92.2 µM), inactives show at the top dose activity change, negative = less growth; actives 0.21% (n = 360,000); AID 651644; active = well fitted falling curve with a large enough effect; inconclusive = small, poorly fitted or top-dose-only effect; inactive = no such curve, though single readings can be large or run the other way;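 further: on the % scale 0 is the no-effect control and ±100 the full control effect; nearly all actives have a fitted effect of over 50% in size; the assay follows cell death caused by Vpr and the record does not say whether a fall means rescue or toxicity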
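Fission yeast RE007 carrying one integrated HIV-1 vpr copy, seeded at OD 0.01 in PMG+AL medium with 23 nL pinned compound. Grown 24 h at 30 degrees; viability read by BacTiter-Glo luminescence after 5 min.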
2A StopGo: FMDV 2A StopGo reporter, luciferase signal | human cells with a luciferase reporter of 2A StopGo recoding; control for the full effect not named in the record | Potency, µM (highest dose often 57.9 µM), for inactives: at the top dose signal change, negative = less light | actives 1.2% (n = 410,000) | AID 1159524; active = well fitted falling curve with a large enough effect; inconclusive = small, poorly fitted or top-dose-only effect; inactive = no such curve, though single readings can be large or run the other way; tested in HEK293T cells; further: on the % scale 0 is the no-effect control and ±100 the full control effect; nearly all actives have a fitted effect of over 45% in size; luciferase light after 4 h
Cruzain inh Det: cruzain (T. cruzi) inhibition with detergent; actives 0.43% (n = 200,000); Potency, µM, without a hit: max response, negative = inhibition, hits mostly inhibitors; purified cruzain, Z-FR-AMC fluorescence, 0.01% Triton; active means well fitted curve in the direction sought with a large enough effect; inconclusive means small, poorly fitted or top-dose-only effect, or another doubt; inactive means no such curve, though single readings can be large; an effect the other way counts as inactive or inconclusive;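 further: plate controls were neutral wells for no effect and buffer without enzyme for full effect; nearly all actives have a fitted effect of over 40% in size; top concentration of the series not given in the record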
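15 min RT preincubation of 1.5 nM cruzain with compound, then 2 uM Z-FR-AMC added; kinetic AMC fluorescence, 60 s delta. Triton X-100 0.01%, pH 5.5.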
NS1 inh: inhibitors of influenza NS1 protein function. actives 0.4% (n = 270,000). S. cerevisiae slowed by influenza A NS1, growth recovery by OD600. AID 2326. Potency, µM (top dose mostly 46.1 µM), without a hit: at the highest dose activity, positive = more growth; further: actives are rising curves; nearly all actives have a fitted effect of over 50% in size
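A cell-based growth assay was used: compounds that relieve NS1-induced slow growth of budding yeast raise OD600. Assay medium was yeast nitrogen base with ammonium sulphate and -URA supplement, pH 6.0, with 2% galactose.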
LASV entry inh: inhibitors of Lassa virus binding or cell entry | Potency, µM (titrated, usually from 37.9 µM), for inactives: top-dose activity change, negative = inhibition, most hits filed as inhibitors | actives 1.2% (n = 300,000) | AID 540256 | Lassa virus pseudotype entry inhibition, cell reporter; control for the full effect not named in the record; active means well fitted inhibition curve with a large enough effect; inconclusive means small, poorly fitted or top-dose-only effect, or effect the other way; inactive means flat fitted curve, though single readings scatter; tested in HEK293 cells; further: on the % scale 0 is the no-effect control and ±100 the full control effect; nearly all actives have a fitted effect of over 50% in size; luciferase read-out
Marburg entry inh: inhibitors of Marburg virus binding or cell entry; Marburg virus pseudotyped entry inhibition, cell reporter; control for the full effect not named in the record; about a third of the inactives were read at about 46 µM; Potency, µM (series often up to 37.8 µM), for the others: top-dose activity change, negative = inhibition, hits mostly inhibitors; actives 1.8% (n = 300,000); active = well fitted inhibition curve with a large enough effect; inconclusive = small, poorly fitted or top-dose-only effect, or effect the other way; inactive = flat fitted curve, though single readings scatter; tested in HEK293 cells; about a fifth of its hits are not listed in these tables; further: on the % scale 0 is the no-effect control and ±100 the full control effect; luciferase read-out
SARS PLP yeast: blocks SARS-CoV papain-like protease in a yeast assay | S. cerevisiae expressing SARS-CoV PLpro, growth rescue; control for the full effect not named in the record | Potency, µM (doses to about 32.9 µM), inactives show at the highest dose activity, positive = growth rescue | actives 0.19% (n = 330,000) | AID 485353; further: 0% is about no effect; nearly all actives have a fitted effect of over 55% in size; growth read by luminescence after 48 h
* marks the source's active call; other numbers are inactive results; ? = inconclusive; nt = no result given; & = joins results of further samples; [ ] = another dose, or the depositor's remark. Unless noted, the call rests on the fitted dose curve; in most records, active means well fitted rising curve with a large enough effect; inconclusive means small, poorly fitted or top-dose-only effect; inactive means no such curve, though single readings can be large or run the other way. Potency means the concentration at half of the fitted maximal effect.

SMILES	Cruzain noTriton	RE007 growth inh	2A StopGo	Cruzain inh Det	NS1 inh	LASV entry inh	Marburg entry inh	SARS PLP yeast
COc1ccc(/C=C(\NC(=O)c2ccc(OC)c(OC)c2)C(=O)N2CCN(C)CC2)cc1	nt	4%	0%	nt	-1%	-12%	8%	0%
Cc1nn2c(=O)cc(COC(=O)c3ccccc3NC(=O)c3ccccc3C)nc2s1	10%	nt	15%	-6.5%	nt	14%[46.1 µM]	nt	nt
COC(=O)c1cc(C(=O)Nc2ccc(S(N)(=O)=O)cc2)cc([N+](=O)[O-])c1	nt	11%	-9%	nt	-4%	0%[46.1 µM]	-25%[46.1 µM]	-6%
O=C(Nc1ccccc1N1CCOCC1)c1cccnc1	nt	0%	7%	nt	nt	-16%[46.1 µM]	15%[46.1 µM]	3%
Nc1nc(-c2nc3ccccc3[nH]2)cs1	-3%	-12%	-17%	-5.7%	-3%	-8%	-26%	-5%
CCOc1ccc(C(=O)OCC(=O)c2c(N)n(C)c(=O)n(C)c2=O)cc1OCC	10%	0%	13%	0.0%	0%	0%	-3%	8%[6.58 µM]
Cc1onc(-c2ccccc2)c1C(=O)Nc1ccc(S(=O)(=O)N2CCOCC2)cc1	nt	3%	-10%	nt	-6%	?	-8%[46.1 µM]	1%
N#CCCn1c(C2CCCCC2)nc2ccccc21	-10%	-6%	-19%	-0.1%	-8%	6%	11%	5%
COc1ccc(C2CC(=O)c3cnc(NC(=O)c4ccccc4OC)nc3C2)c(OC)c1 (stereo not drawn)	?	2%	-21%	-3.7%	-61%	?	-14%&-14%	-13%
CCOC(=O)c1c(C)[nH]c(C(=O)COC(=O)/C=C/c2ccc(OC(F)F)cc2)c1C	-20%	6%	-9%	-1.6%	17%	-2%	-7%	10%
CCOc1ccc(NC(=O)N2CCC(c3ccc(C)cc3)C2)cc1 (stereo not drawn)	-4%&5%	9%	28%&43%	-0.6%&2.8%	-11%	26%[46.1 µM]	?	0%
CCCCNC(=O)c1nn(-c2ccc(C)cc2)c(=O)c2c1c1ccccc1n2C	10%	nt	-17%	-0.7%	nt	19%[46.1 µM]	-7%[46.1 µM]	nt
Cc1cc2nnc(SCC(=O)Nc3ccc(F)c(Cl)c3)n2c2ccccc12	-8%	nt	14%	0.0%	nt	28%[46.1 µM]	-4%[46.1 µM]	nt
COc1cccc(CNC(=O)C2CCN(Cc3cc4ccccc4n3Cc3ccccc3)CC2)c1OC	14%	nt	7%	-3.3%	nt	?	nt	nt
Cc1cc(O)c(/C=N/OCc2ccc(Cl)cc2Cl)c(=O)o1	nt	-15%	-17%	nt	nt	-10%	2%[14.2 µM]	-2%
COC(=O)c1ccc(S(=O)(=O)NNC(=O)c2ccc(S(=O)(=O)N3CCCCC3)cc2)cc1	-4%	22%	-19%	-4.7%	11%	3%	19%	-24%
CC(=O)c1ccc(/C=C/c2nc3ccccc3n2C)o1	nt	?	12%	nt	-4%	?	?	-2%
COc1ccc(C(CC(=O)Nc2cccc(C)c2C)N2Cc3ccccc3C2=O)cc1 (stereo not drawn)	-11%	nt	39%[activator]	-5.8%	nt	-13%[46.1 µM]	nt	nt
Cn1c(N)c(C(=O)COc2ccc(C#N)cc2)c(=O)n(C)c1=O	nt	-2%	-11%	nt	nt	0%	16%	-2%
COc1ccc(C(C)NC(=O)c2ccncc2)cc1 (stereo not drawn)	nt	5%	-3%	nt	-13%	-7%	-2%	17%
Cc1c([N+](=O)[O-])c([N+](=O)[O-])nn1CC(=O)NCCc1ccccc1	3%	3%	-23%	-6.9%	-7%	-11%	4%	?
Cc1ccc(NC(=O)N2CCCC2C(=O)Nc2c(C)cc(C)cc2C)cc1 (stereo not drawn)	nt	-2%	13%	nt	-4%	?	-17%[46.1 µM]	0%
CCOC(=O)c1ccc2c(c1)nc(SCC(=O)NC(C)C)n2CC	12%	4%	2%	-3.7%	-10%	-16%	0%	1%
CC(C)CN(CC(C)C)c1nnc(N)s1	1%	8%	-14%	1.1%	?	3%	-32%	4%
COc1ccc(NC(=O)COC(=O)c2cccn2C)cc1S(=O)(=O)N1CCCCC1	nt	6%	-18%	nt	nt	9%[46.1 µM]	?	3%
(cont.)
SMILES	Cruzain noTriton	RE007 growth inh	2A StopGo	Cruzain inh Det	NS1 inh	LASV entry inh	Marburg entry inh	SARS PLP yeast
Cc1cc(SC(C)C(=O)Nc2ncc(Cl)cc2Cl)nc2ccccc12 (stereo not drawn)	-1%	nt	-22%	-4.9%	10%	5.8µM*	?	-8%
COc1ccccc1N1CCN(C2CCCN(Cc3ccc(Cl)cc3)C2)CC1 (stereo not drawn)	nt	6%	-20%	nt	7%	-26%[46.1 µM]	?	-1%
N#Cc1ccccc1NC(=O)COC(=O)CCc1ccccc1	nt	-3%	-10%	nt	0%	6%	3%[46.1 µM]	-7%
O=S(=O)(NC1=NCCC1)c1ccc(F)cc1F	nt	7%	3%	nt	1%	1%	?	-2%
CCO[C@H]1OC(C(=O)O)=C[C@@H](C)[C@@H]1CCCO	nt	8%	-10%	nt	-1%	nt	nt	1%
COc1ccc(CC(=O)NNC(=O)c2cnccn2)cc1	5%	-5%	-5%	3.5%	0%	2%	3%	3%
CN(N)c1nc(N2CCCC2)nc(N2CCCC2)n1	nt	-21%	-7%	nt	nt	3%	?	nt
O=C(CN1C(=O)CSCC1=O)Nc1ccc2c(c1)OCO2	8%	6%	19%	-3.4%	9%	-3%	-7%	1%
O=c1cc(/C=C/c2ccccc2)oc2ccccc12	-23%	-1%	5%	-4.8%	-31%	?	?	-17%
CCCn1c(=O)c2ccccc2n2c(SCC(=O)c3cc(C)n(CC4CCCO4)c3C)nnc12 (stereo not drawn)	10%	nt	nt	1.0%	-4%	nt	nt	-8%
CCC(C)NC(=O)N[C@@H](Cc1ccccc1)C(=O)O (stereo partly drawn)	-5%	3%	-18%	9.9%	6%	2%	-3%	3%
CC(C)c1ccc(C2c3[nH]c4ccccc4c3C[C@H]3C(=O)N(c4ccccc4C(=O)N4CCC(C(=O)O)CC4)C(=O)N23)cc1 (stereo partly drawn)	nt	4%	?	nt	-18%	nt	nt	-1%
CCCCNC(=O)C1(N2C(=O)c3ccccc3C2=O)CCCC1	nt	2%	10%	nt	nt	-2%	-3%	nt
Cc1cc(C)cc(-n2c(C)cc(C(=O)C(=O)Nc3ccccc3F)c2C)c1	-5%	nt	16%	-2.6%	nt	21%[46.1 µM]	10%[46.1 µM]	nt
Cc1ccc(N/C=C2\C(=O)N(c3ccc(F)cc3F)C(c3cccnc3)S2(=O)=O)cc1 (stereo not drawn)	nt	-11%	-7%	nt	0%	?	6%[46.1 µM]	-3%
Cn1c(=NC(=O)c2ccc(F)cc2)sc2cc(Br)ccc21	5%	nt	37%[activator]	0.0%	nt	?	nt	nt
CCCn1c(-c2ccc(F)cc2)cnc1SCC(=O)O	-4%	5%	-17%	3.6%	-7%	9%	5%[46.1 µM]	-7%
O=C(NCCC1CCCCN1S(=O)(=O)c1ccc(F)cc1)C(=O)NCc1cccnc1 (stereo not drawn)	nt	-1%	-22%	nt	nt	?	2%	-6%
NC(=O)C1CC(=O)N(c2ccc(OCC(=O)Nc3ccc(Cl)cc3)cc2)C1 (stereo not drawn)	nt	-3%	-15%	nt	1%	nt	4%[46.1 µM]	2%
CC(=O)Nc1c(O)nc(SCC(=O)Nc2nnc(SCc3ccccc3)s2)[nH]c1=O	nt	1%	-6%	nt	nt	14%[46.1 µM]	-1%[46.1 µM]	-1%
CSc1cc(C)c(OCC(=O)Nc2ccc(NC(C)=O)cc2)c(C)c1	nt	-10%	-3%	nt	4%	nt	nt	-1%
COc1ccc(/C=C(\NC(=O)c2ccccc2)C(=O)N/N=C/c2ccncc2)cc1	-9%	3%	nt	-8.7%	-19%	?	?	-6%
CC(=O)Nc1ccc(N/C=C/C(=O)c2ccc(C)o2)cc1	3%	-4%	60%[activator]	-5.0%	-65%	20%	?	-5%
COC(=O)Cc1ccc2sc(-c3ccccc3)nc2c1	-3%	?	-70%	-11%	-10%	?	8.2µM*	-33%
C[C@H](NC(=O)[C@H]1N2C(=O)c3ccccc3C2SC1(C)C)C(=O)N1CCC[C@H]1CO (stereo partly drawn)	nt	4%	-12%	nt	29%	nt	nt	0%
(further entries)
SMILES	Cruzain noTriton	RE007 growth inh	2A StopGo	Cruzain inh Det	NS1 inh	LASV entry inh	Marburg entry inh	SARS PLP yeast
O=C(CSc1ncn[nH]1)Nc1ccccc1C(=O)O	3%	-20%	-24%	2.4%	-3%	1%	10%	5%
CCOC(=O)C(NC(C)=O)(Nc1ccc(S(=O)(=O)Nc2cc(C)on2)cc1)C(F)(F)F (stereo not drawn)	0%	-4%	-7%	-1.1%	5%	14%	12%[46.1 µM]	-2%
Cc1ccc(-c2nc(NC(=O)CSc3cc(C)c4ccccc4n3)ns2)cc1	?	19%	-15%&-9%	-1.6%&-4.7%	4%	25%[46.1 µM]	?	13%
CNC(=O)COc1ccc(Nc2nnc(C)c3ccccc23)cc1	nt	2%	12%	nt	3%	19%	?	-2%
CC(C)CCNC(=O)c1csc2c1CCCCC2	nt	1%	40%[activator]	nt	nt	-1%	19%[46.1 µM]	1%
CCC1(c2ccccc2)SCC(c2ccccc2)=NC1=O (stereo not drawn)	nt	-19%	?	nt	nt	-24%[46.1 µM]	?	nt
CC(=O)N1CCN(CCN2C(C)=CC(=C(C#N)C#N)C=C2C)CC1	nt	14%	-9%	nt	1%	6%	3%	0%
O=C(CSc1nc2ccccc2o1)c1ccc2c(c1)OCCO2	0%	-26%	17%	-2.2%	1%	9%	22%[46.1 µM]	2%
CC(C)NS(=O)(=O)c1ccc(OCC(=O)NCc2cccnc2)cc1	1%	-17%	nt	1.4%	-3%	-6%	22%	2%
CN(C(=O)CN1CCN(c2ccccc2F)CC1)C1CCCc2ccccc21 (stereo not drawn)	nt	-12%	8%	nt	-4%	?	-26%[46.1 µM]	-4%
CNC(=O)Nc1ccc(Cn2cc(C(F)(F)F)ccc2=O)cc1	nt	-8%	-2%	nt	nt	3%	-2%[46.1 µM]	-1%
CC(OC(=O)c1cc(S(=O)(=O)N(C)C)ccc1N1CCCC1)C(=O)NCc1ccccc1 (stereo not drawn)	nt	10%	-5%	nt	-38%	-16%	3%	1%

Screening results: PubChem BioAssay, National Center for Advancing Translational Sciences (NCATS)
